# TDP1 cell noCPT: qHTS for Inhibitors of human tyrosyl-DNA phosphodiesterase 1 (TDP1): qHTS in cells in absence of CPT. AID 686978, 2013. DT40 Tdp1-/- hTDP1 cells, no CPT, ATP luminescence, 48 h. actives 15% (n = 420,000). Potency, µM (top dose mostly 46.2 µM), without a hit: at the highest dose activity change, negative = growth inhibition, hits mostly inhibitors; also: nearly all actives have a fitted effect of over 55% in size
#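 Chicken DT40 Tdp1-/- cells stably complemented with human TDP1 were seeded at 400 cells/well with DMSO in place of 20 nM camptothecin. After compound pinning, cells grew at least 48 hr at 37 °C; viability read by CellTiter-Glo luminescence.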
# TDP1 block: inhibitors of human tyrosyl-DNA phosphodiesterase TDP1. Q9NUW8. recombinant TDP1, AlphaScreen DNA substrate cleavage. Potency, µM (series often up to 130 µM), for the others: top-dose activity change, negative = inhibition, most hits filed as inhibitors. actives 0.28% (n = 350,000). AID 485290; also: nearly all actives have a fitted effect of over 40% in size
# Target sequence (Q9NUW8 whole entry, looked up): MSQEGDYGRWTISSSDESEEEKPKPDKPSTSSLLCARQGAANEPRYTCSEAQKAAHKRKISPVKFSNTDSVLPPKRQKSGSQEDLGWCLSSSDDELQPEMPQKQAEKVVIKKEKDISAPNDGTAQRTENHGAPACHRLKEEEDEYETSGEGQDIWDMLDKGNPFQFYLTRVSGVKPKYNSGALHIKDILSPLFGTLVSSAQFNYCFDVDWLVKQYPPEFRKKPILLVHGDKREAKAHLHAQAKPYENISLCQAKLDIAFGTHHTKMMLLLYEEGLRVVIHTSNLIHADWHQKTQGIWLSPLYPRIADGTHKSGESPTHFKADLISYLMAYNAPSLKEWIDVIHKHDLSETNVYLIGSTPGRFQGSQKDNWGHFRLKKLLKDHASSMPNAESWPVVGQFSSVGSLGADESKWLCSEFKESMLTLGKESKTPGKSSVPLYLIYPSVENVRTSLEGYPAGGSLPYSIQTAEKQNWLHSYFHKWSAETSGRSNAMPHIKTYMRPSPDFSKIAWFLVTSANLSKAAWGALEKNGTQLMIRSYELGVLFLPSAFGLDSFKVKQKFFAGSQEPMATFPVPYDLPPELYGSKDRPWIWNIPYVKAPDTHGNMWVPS
#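 Tdp1 1 nM final; 15 min RT w/ cpd; substrate 15 nM, 5 min; beads 10 ug/ml, 10 min; AlphaScreen read. Neg ctrl: no enzyme.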
# Numbers without * were called inactive; ? = inconclusive; . = no result given; & = joins results of further samples; [ ] = another dose, or the depositor's remark. Calls follow the shape of the dose curve; as a rule, active = well fitted curve in the direction sought with a large enough effect; inconclusive = small, poorly fitted or top-dose-only effect, or another doubt; inactive = no such curve, though single readings can be large; an effect the other way counts as inactive or inconclusive. % is scaled to controls: 0 for no effect and ±100 for the full control effect; potency is read from the fitted curve at half-maximal effect.
SMILES,TDP1 cell noCPT,TDP1 block
Cc1nn(C)c(C)c1S(=O)(=O)N(CC(=O)NCCN1CCOCC1)c1ccc(C(C)C)cc1,-2%,-3%
CCOC(=O)c1cc(CC)sc1NC(=O)COC(=O)c1cnccn1,1%,0%
CN(C)S(=O)(=O)c1cccc(NC(=O)CN2C(=O)NC(Cc3c[nH]c4ccccc34)C2=O)c1 (stereo unspecified),?,1%
O=C(NN1C(=O)c2ccccc2NC1c1cccnc1)c1ccccc1 (stereo unspecified),13%,5%
COc1ccc(CN(C(=O)CN2C(=O)C(C)Oc3ccccc32)C2CCCC2)c(OC)c1 (stereo unspecified),?,-5%
CC(c1ccccc1)N1C(=O)c2ccccc2C1O (stereo unspecified),-2%,3%
Cc1ccnc(NC(=O)CN2C(=O)c3ccccc3C2=O)c1,-3%,4%
Cc1onc(-c2ccccc2)c1C(=O)c1ccccc1,?,-4%
Cc1ccc(C(=O)COC(=O)CNC(=O)c2cccs2)cc1,-5%,7%
COc1cc(C(=O)NCCC(=O)NC(C)CCc2ccccc2)cc(OC)c1OC (stereo unspecified),5%,4%
CN1C(=O)CSc2ccc(NC(=O)NCc3ccccc3)cc21,?,8%
COc1ccc(C(=O)N/C(=C\c2ccc(Cl)cc2)C(=O)NCC2CCCO2)cc1 (stereo unspecified),-14%,5%
COc1ccc(S(=O)(=O)N2CCN(C(=O)c3ccc(C)o3)CC2)cc1,?,4%[0.0935 µM]
CCOc1ccccc1NC(=O)c1ccc([N+](=O)[O-])cc1,.,6%
Nc1nc(NC(=O)c2ccccc2)nn1-c1ccccc1,1%,0%
O=C(NC1CCCC1)c1cc(-c2cccc(Cl)c2)on1,-27%,8%
O=c1cc[nH]c2c1ccc1c(=O)cc[nH]c12,-22%,.
CN1CCN(C(=S)C(=O)Nc2ccccc2)CC1,10%,0%
CCCN1C(=O)c2cc(C(=O)NC3CCCC3)ccc2C1O (stereo unspecified),-1%,1%
Cc1ccc(S(=O)(=O)/N=C(/Nc2ccc3[nH]c(=O)[nH]c3c2)c2ccccc2)cc1,-13%,0%
Cc1ccccc1C(=O)OC(C)CN1CCN(C)CC1 (stereo unspecified),-14%,3%
CCN1CCCC1CNC(=O)c1ccc(N2CCOCC2)c(NS(=O)(=O)c2ccc(OC)cc2)c1 (stereo unspecified),0%,-1%
COc1ccc(NC(=S)N2CCNC(=O)C2CC(=O)Nc2ccc(C)cc2)cc1 (stereo unspecified),-16%,4%
Cc1ccccc1NC(=O)CC1S/C(=N/c2nccs2)N(C)C1=O (stereo unspecified),-10%,-2%
CC(C)C(C(=O)NCc1ccco1)N(CC1CCCO1)C(=O)CNS(=O)(=O)c1ccccc1 (stereo unspecified),-7%,6%

# Next structures follow.
SMILES,TDP1 cell noCPT,TDP1 block
CCCCN(C(=S)NC(=O)c1ccccc1)c1c(N)n(Cc2ccccc2)c(=O)[nH]c1=O,-4%,3%
O=C(O)C1Nc2c(Cl)cc(Cl)cc2C2C=CCC12 (stereo unspecified),-13%,.
Cc1cc(NC(=O)COC(=O)CNC(=O)c2cccs2)c([N+](=O)[O-])cc1C,-4%,5%
CCOc1ccc2nc(SCC(=O)NCc3ccc(S(N)(=O)=O)cc3)sc2c1,-7%,2%
CSc1ccccc1NC(=O)CSc1nnc(COc2ccccc2)o1,-9%,0%
CN(C)c1ccc(/C=N/NC(=O)c2ccn(C)n2)cc1,-24%,0%
COc1cc(N2CCOCC2)ncn1,-7%,0%
CN(C)S(=O)(=O)c1ccc(NC(=S)NC(=O)c2ccc(Br)o2)cc1,.,6%
CCOc1ccc2ccccc2c1/C=N\NC(=O)c1ccc([N+](=O)[O-])cc1,17%,.
Cc1ccc(NC(=O)c2cc(Cl)ccc2[N+](=O)[O-])cc1C,10%,2%
CC(C)(C)S(=O)c1cccs1 (stereo unspecified),0%,8%
CCOc1ccc(CCNC(=O)COC(=O)CNS(=O)(=O)c2ccc(NC(C)=O)cc2)cc1OCC,3%,1%
Cc1ccc(C(=O)NCC(=O)OCC(=O)c2cc(C)n(Cc3ccco3)c2C)cc1,-18%,8%
CCC(C)NC(=O)c1cn(CCOC)c(=O)c2c1c1ccccc1n2C (stereo unspecified),1%,.
CCOC(=O)c1c(-c2ccc(OC)cc2)csc1NC(=O)CSc1nnc(C)c(=O)[nH]1,-15%,3%
Cc1cc(-c2cc(-c3ccccc3)on2)nc(NC2CCCC2)n1,?,-5%
O=C(CCCCCn1c(=O)[nH]c2ccccc2c1=O)NCCc1c[nH]c2ccccc12,-21%,6%
CCc1ccccc1NC(=O)N[C@@H](C)C(=O)O,-3%,1%
O=C(Nc1ccc2oc(=O)ccc2c1)c1cc2ccccc2o1,?,-3%
CSCCC(=O)N1CCC(n2nccc2NC(=O)CCc2ccccc2)CC1,17%,1%
Cc1nc2ccccc2n1/N=C/c1cccnc1,?,7%
O=C1CCC(=O)N1CN(C(=O)c1ccco1)c1ccccc1,0%,-4%
O=C1CC(NCc2ccc3c(c2)OCO3)C(=O)N1CCc1ccccc1 (stereo unspecified),-3%,5%
O=[N+]([O-])c1cccc(S(=O)(=O)N/N=C\c2ccc3c(c2)OCO3)c1,13%,6%
COC(c1ccccc1)c1nnc(CCC(=O)NCc2ccc3ncccc3c2)o1 (stereo unspecified),15%,0%

# Additional entries:
SMILES,TDP1 cell noCPT,TDP1 block
Cc1cc(C)nc(NC(=O)CN2C(=O)c3ccccc3C2=O)n1,2%,4%
COc1ccnc(Oc2ccccc2)n1,-27%,-1%
Oc1ccc(-c2nc3cnccn3c2Nc2ccc3c(c2)OCCO3)cc1,-8%,-5%
O=C(CCNS(=O)(=O)c1ccccc1)N1CCN(c2ccccc2)CC1,2%,2%
c1ccc(CSc2snnc2-c2ccccc2)cc1,-17%,.
COc1cc2c(cc1OC)-c1nc3ccccc3c(=O)n1C(C)(C)C2,?,2%
CN1CCN(Cc2c(C(=O)N3CCc4ccccc4C3)nc3ccc(Cl)cn23)CC1,12%,2%
CCCNC(=O)Cn1c(=O)oc2cc(S(=O)(=O)N3CC(C)CC(C)C3)ccc21 (stereo unspecified),?,1%
CC(C)NC(=O)NC(=O)CSc1ncccn1,8%,1%
Cc1oc(-c2ccccc2)nc1CS(=O)CC(=O)O (stereo unspecified),-11%,2%
CCCCN(C)C(=O)CC(NS(=O)(=O)c1ccc(NC(C)=O)cc1)C(C)C (stereo unspecified),6%,-2%
CC(O)CNc1nc(NCc2ccccc2)c2cnn(C)c2n1 (stereo unspecified),-21%,0%
O=C(COC(=O)c1ccc2c(c1)OCO2)Nc1nc(-c2ccccc2)cs1,-35%,-1%
O=C(CCc1ccccc1)Nc1cccc(NC(=O)CCc2ccccc2)c1,?,1%
O=C(C1CCC1)N1CCc2cc(S(=O)(=O)NCc3ccco3)ccc21,?,2%
Cc1sc(NC(=O)CSc2nnnn2C(C)C)c(C#N)c1C,-21%,2%
CCNC(=O)COn1c(SCC(=O)NCC)nc2ccccc2c1=O,-9%,2%
N#C/C(=C\c1ccccc1C(F)(F)F)C(=O)Nc1ccccc1F,?,2%
COC(=O)c1ccccc1C(=O)N1CCOCCOCCOCC1,-6%,3%
C=C(C)C1Cc2cc3ccc(=O)oc3cc2O1 (stereo unspecified),-3%,0%
COC(=O)c1cccc(NC(=O)CSc2nnc(C)n2C)c1,5%,-2%
Cc1ccnc(NC(=S)NC(=O)c2cccs2)c1,-19%,5%
CO[C@H]1COC(=O)CCC[C@H](C)[C@H](OC)COC(=O)C/C=C\[C@@H]1C,.,10%[21 µM]
C=CCNC(=O)COC(=O)C1CCN(S(=O)(=O)c2ccc3c(c2)OCCO3)CC1,-3%,3%
O=[N+]([O-])c1cccc(/C=N/N2CCN(Cc3ccccc3)CC2)c1,1%,7%

# Continued.
SMILES,TDP1 cell noCPT,TDP1 block
O=C(CNS(=O)(=O)c1cccs1)N1CCN(c2ccccc2F)CC1,-18%&-11%,-5%&0%
C=CCc1cc(C)ccc1OCCOCCn1ccnc1,?,0%
COc1ccc(C(C)(C)C)cc1NC(=O)COC(=O)c1ccc([N+](=O)[O-])o1,-8%,10%
C=CCOc1c2ccc(C(=O)NCc3ccc(OC)cc3)cc2nn1C,-27%,-2%
O=C(CSc1nnc(-c2ccc(O)cc2)o1)Nc1ccc2c(c1)OCCO2,-23%,2%
CCOC(=O)c1c(C)[nH]c(C)c1C(=O)CSc1nnnn1-c1ccccc1,?,5%
CCc1nnc(NC(=O)c2cccs2)s1,-3%,3%
CC1(c2ccc(Cl)cc2Cl)NC(=O)N(CC(=O)Nc2cccnc2Cl)C1=O (stereo unspecified),-11%,-6%[0.505 µM]
CC(C)C(CC(=O)NCc1ccco1)c1ccco1 (stereo unspecified),-24%,2%
CCOCc1nnc(NC(=O)c2ccc(NC(C)=O)cc2)s1,-16%,-10%
CCn1cnc2c1c(=O)n(CC(=O)OC(C)C(N)=O)c(=O)n2Cc1ccccc1 (stereo unspecified),-26%,0%
COc1cccc(-n2c(CNc3ccc(F)cc3)nnc2SCC(N)=O)c1,-2%,-1%
Cc1ccc(C)c(S(=O)(=O)N2CCN(C(=O)c3ccc(C)s3)CC2)c1,?,1%
CN(C(=O)COC(=O)c1ccccc1C(=O)N(C)c1ccccc1)c1ccccc1,-16%,4%
Cc1ccc(C(=O)Nc2ccc(S(=O)(=O)NC3=NCCCCC3)cc2)c(C)c1,9%,1%
N#CCC(=O)N/N=C/c1ccc(Cl)cc1,0%,3%
COC(=O)C(C(=O)Nc1cccc(C)n1)C1CCCCCC1 (stereo unspecified),?,-4%
COc1cc2ccccc2cc1C(=O)Nc1ccc(NC(=O)c2cccs2)cc1,21µM*,5%[0.0935 µM]
Cc1ccccc1N1C(=O)CC2(CCCC2)CC1=O,0%,5%
COc1ccc(CCCC(=O)NC2CCCCC2)cc1,-7%,4%
O=C(CS(=O)(=O)Cc1ccccc1)Nc1nnc(C(F)(F)F)s1,-21%,-7%
COc1ccc(CCNC(=O)CCCCCNC(=O)N2CCn3c2nc2ccccc23)cc1OC,-26%,3%
CC1CC(=O)Nc2ccccc2N1S(=O)(=O)c1ccc(Br)cc1 (stereo unspecified),-26%,0%
Cc1c(NC(=O)C(C)Sc2nnc(-c3ccccc3)o2)c(=O)n(-c2ccccc2)n1C (stereo unspecified),-3%,2%
COc1ccccc1C(=O)N(Cc1ccco1)C1CCS(=O)(=O)C1 (stereo unspecified),-4%,4%

# Already shown: 4 of the compounds above.
SMILES,TDP1 cell noCPT,TDP1 block
COc1ccc(CCNC(=O)CCCCCNC(=O)N2CCn3c2nc2ccccc23)cc1OC,-26%,3%
CC1CC(=O)Nc2ccccc2N1S(=O)(=O)c1ccc(Br)cc1 (stereo unspecified),-26%,0%
Cc1c(NC(=O)C(C)Sc2nnc(-c3ccccc3)o2)c(=O)n(-c2ccccc2)n1C (stereo unspecified),-3%,2%
COc1ccccc1C(=O)N(Cc1ccco1)C1CCS(=O)(=O)C1 (stereo unspecified),-4%,4%

# (cont.)
SMILES,TDP1 cell noCPT,TDP1 block
Nc1ccc(-n2nncc2-c2ccc(Cl)cc2)cc1,-1%,7%
CC(CC(=O)NNC(=O)c1ccncc1)c1ccccc1 (stereo unspecified),-2%,0%
Cc1cc(C)c2nc(NC(=O)c3cc(C)on3)sc2c1,?,5%
COc1ccc(CN(CCO)CCO)cc1[N+](=O)[O-],1%,3%
Clc1ccc(-c2n[nH]c3c2CCCC3)cc1,3%,-1%
CC1CCc2ccccc2N1C(N)=Nc1ccccc1 (stereo unspecified),-23%,-3%
COc1ccc(-c2cn3nc4c(nc3n2)CCCC4)cc1,?,1%
CCCn1c(N2CCN(C)CC2)nc2c1c(=O)[nH]c(=O)n2C,-7%,-2%
O=C(O)C1(P(=O)(c2ccccc2)c2ccccc2)CCC1,-23%,8%
Cc1cc(-c2ccccc2)oc(=O)c1NC(=O)c1ccccc1,?,-5%
Cc1ccc(-c2csc(NC(=O)Cc3cccs3)n2)cc1C,-2%,2%
CC(NC(=O)CCC(=O)NC(C)c1ccccc1)c1ccccc1 (stereo unspecified),6%,.
Nc1nn(S(=O)(=O)c2cccc3nsnc23)cc1-c1ccc(Br)cc1,?,8%
c1ccc(-c2csc(N3CCOCC3)n2)cc1,-7%,5%
CC(C)c1nc(NCCO)c2nnn(Cc3ccccc3)c2n1,-2%,7%
CC(=O)OCCn1c(C)[n+](CCOC(C)=O)c2cc(Cl)c(Cl)cc21,-8%,8%
CCCCCOC(=O)C1[C@H]2C(=O)N(c3ccccc3CC)C[C@]23C=C[C@H]1O3 (stereo partly specified),-21%,4%
Cc1cc(C(=O)OCC(=O)Nc2nc(-c3ccccc3)cs2)c(C)o1,?,-9%
O=C(CSc1nnnn1-c1cccnc1)Nc1ccc(F)cc1F,2%,3%
COc1ccc(C(=O)NCC2(N3CCCCC3)CCCCC2)cc1S(=O)(=O)N(C)C,2%,-3%
O=C(Nc1nnc(SCC(=O)N2CCOCC2)s1)c1ccccc1Cl,-13%,-2%

# Quoted at random: 6 entries already listed
SMILES,TDP1 cell noCPT,TDP1 block
O=C(O)C1(P(=O)(c2ccccc2)c2ccccc2)CCC1,-23%,8%
CCCCCOC(=O)C1[C@H]2C(=O)N(c3ccccc3CC)C[C@]23C=C[C@H]1O3 (stereo partly specified),-21%,4%
CC(CC(=O)NNC(=O)c1ccncc1)c1ccccc1 (stereo unspecified),-2%,0%
CC(C)c1nc(NCCO)c2nnn(Cc3ccccc3)c2n1,-2%,7%
CC(NC(=O)CCC(=O)NC(C)c1ccccc1)c1ccccc1 (stereo unspecified),6%,.
CC1CCc2ccccc2N1C(N)=Nc1ccccc1 (stereo unspecified),-23%,-3%

# Some of the compounds tested; most or all hits stand in other tables.
